Screening results (PubChem BioAssay)
HNF4A DNA FP: change in binding of human HNF4 alpha to DNA; P41235; 0.3% of 360,000 active; HNF4a-FITC DNA binding, fluorescence polarization, 1 h; activity change, % at 10 µM; AID 1224865; in the data active = activity change above about 30%, passing the limit was not always enough;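 also: controls were the assay level and a saturating level of protein; the project sought stronger binding though the title names inhibitors; some compounds called inactive have numbers as strong as hits; positive values seem to mean higher polarization but the record does not say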
Target sequence (P41235 whole entry, looked up): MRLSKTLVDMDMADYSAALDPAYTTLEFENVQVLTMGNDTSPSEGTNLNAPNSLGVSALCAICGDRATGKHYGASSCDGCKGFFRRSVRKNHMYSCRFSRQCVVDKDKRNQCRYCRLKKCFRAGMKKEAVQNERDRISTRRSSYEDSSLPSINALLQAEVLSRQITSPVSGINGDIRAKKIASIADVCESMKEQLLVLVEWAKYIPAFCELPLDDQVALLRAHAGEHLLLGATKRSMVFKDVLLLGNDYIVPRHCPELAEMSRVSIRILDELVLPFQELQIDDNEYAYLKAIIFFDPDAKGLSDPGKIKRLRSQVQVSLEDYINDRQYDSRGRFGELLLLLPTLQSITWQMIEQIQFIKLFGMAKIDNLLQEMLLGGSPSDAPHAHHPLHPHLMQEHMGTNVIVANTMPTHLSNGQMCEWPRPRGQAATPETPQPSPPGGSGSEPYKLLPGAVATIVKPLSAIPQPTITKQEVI
RanGTP-Imp inh: inhibitors of RanGTP-importin-beta interaction, primary screen, biochemical, FRET, CFP-Ran, YFP-importin-beta, homogeneous; inhibition, % (test concentration not listed); 1.1% of 300,000 active; cell-free CFP-Ran/YFP-importin-beta FRET ratio;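 active = most replicates above 15%; inconclusive = exactly half above 15%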;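 also: 0% = DMSO wells and 100% = Ran loaded with GDP instead of GTP; wells of about 40 µL received 100 nL stock; the first replicate is given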
E coli growth: E. coli growth inhibition | Escherichia coli growth, OD600, 23 h; active compounds read low | OD600 absorbance (test concentration not listed) | 0.21% of 330,000 active | AID 1053175;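 active = OD600 absorbance below the run mean of sample wells minus 3.6 SD, in any replicate, cut at about 0.56 in these data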;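 also: stock transfer was 300 nL into about 60 µL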
FGF22 binding: binders of recombinant human FGF22 by thermal shift | Q9HCT0 | SYPRO orange fluorescence; percent of sucrose octasulfate shift, DMSO zero | 1.5% of 340,000 active | calls only at 9.99 µM;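 active = melting point raised past a set limit in the mean and every replicate; inconclusive = no clear call; three in four hits are not shown here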
Target sequence (Q9HCT0 whole entry, looked up): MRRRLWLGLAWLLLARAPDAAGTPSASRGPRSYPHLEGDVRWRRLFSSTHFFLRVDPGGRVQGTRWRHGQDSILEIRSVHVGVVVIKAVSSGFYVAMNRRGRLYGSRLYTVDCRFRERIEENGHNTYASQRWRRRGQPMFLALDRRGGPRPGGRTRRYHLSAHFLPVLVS
Vif TR-FRET: HIV-1 Vif–A3G interaction blockers – biochemical, TR-FRET, GST-Vif 1-94, biotin-A3G peptide, dose response retest, primary screen (AID 1117319); 0.57% of 260,000 active; inhibition, %; hits with a dose series show IC50 in µM; TR-FRET GST-Vif / biotin-A3G peptide binding; higher % means a stronger effect; test concentration not given here; strong numbers were not always called active;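 active = above the screen mean plus three standard deviations and confirmed in dose response; inconclusive = results disagree or hit not tested in dose response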;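 also: Vif residues 1-94 fused to GST binding biotinylated APOBEC3G peptide 110-148; 0% = full assay without inhibitor and 100% = GST in place of GST-Vif; retest series ran down from 100 µM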
AF4-AF9 inh: MLL-AF4/AF9 protein interaction inhibition. P42568. AlphaScreen, biotin-AF4 peptide binding to FLAG-AF9. inhibition, % at 10 µM. 0.47% of 350,000 active. AID 651704;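 active = every replicate reaching a set inhibition limit, whatever the replicate mean, cut at about 25% in these data; inconclusive = mean inhibition reaches that limit but some replicates miss it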;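 also: 0% = plate neutral control median and 100% = total signal loss; the record names both 10 and 1 µM as test concentration; the first replicate is given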
UCH37 DUB inh: human UCH37 deubiquitinating enzyme inhibition; purified proteasome/UCH37, Ub-AMC cleavage fluorescence; 0.33% of 330,000 active; inhibition, % (concentration not given with the values);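 active = mean of two replicates above 20%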;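 also: 0% = compound-free wells with enzyme and 100% = wells lacking proteasome; stock transfer was 100 nL into about 20 µL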
Target sequence (Q9Y5K5 whole entry, looked up): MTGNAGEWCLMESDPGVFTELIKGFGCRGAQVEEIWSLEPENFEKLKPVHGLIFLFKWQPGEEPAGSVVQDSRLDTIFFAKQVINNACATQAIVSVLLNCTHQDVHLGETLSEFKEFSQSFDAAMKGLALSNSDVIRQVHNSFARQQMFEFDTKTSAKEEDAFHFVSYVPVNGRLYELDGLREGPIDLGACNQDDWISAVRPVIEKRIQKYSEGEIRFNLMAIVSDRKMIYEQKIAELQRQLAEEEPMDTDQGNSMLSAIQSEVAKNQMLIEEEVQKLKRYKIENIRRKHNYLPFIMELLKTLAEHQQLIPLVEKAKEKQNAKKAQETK
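Signal – fluorescence, ex 355 nm, em 460 nm · System – Proteasome-bound UCH37 · Input – 0.15 nM proteasome as dispensed · Timing – 30 min preincubation with enzyme, 25 min cleavage at room temperature · Read-out basis – percent inhibition of cleavage signal versus uninhibited and no-proteasome wells · Medium – Tris-HCl pH 7.4 with ATP-MgCl2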
Starred values were filed as active, the others as inactive; i = inactive; ? = inconclusive; / = not tested or not shown; + = active, no number; & = joins results of further samples.

Preview, 4 compounds:
SMILES	HNF4A DNA FP	RanGTP-Imp inh	E coli growth	FGF22 binding	Vif TR-FRET	AF4-AF9 inh	UCH37 DUB inh
COc1ccc(CNC(=O)c2cccnc2SC)cc1OC	2.4	-3.4	/	i	-8%	0.3	/
COc1ccc(S(=O)(=O)NCC2CCCN(CC(C)(C)C)C2)cc1 (centres undefined)	-0.2	-2.8	0.64	i	-5%	-3.2	1.2
Cc1ccc2nc(Cl)c(/C=N/Nc3nc(C)cc(C)n3)c(=O)n2c1	-3.8	-0.2	/	i	/	-22	/
Cc1cc(C)c(S(=O)(=O)N2CCN(C(=O)c3c(C)nn(-c4ccccc4)c3Cl)CC2)c(C)c1	-0.9	/	0.71	i	/	3.4	2.0

Main list, from the start:
SMILES	HNF4A DNA FP	RanGTP-Imp inh	E coli growth	FGF22 binding	Vif TR-FRET	AF4-AF9 inh	UCH37 DUB inh
COc1ccc(CNC(=O)c2cccnc2SC)cc1OC	2.4	-3.4	/	i	-8%	0.3	/
COc1ccc(S(=O)(=O)NCC2CCCN(CC(C)(C)C)C2)cc1 (centres undefined)	-0.2	-2.8	0.64	i	-5%	-3.2	1.2
Cc1ccc2nc(Cl)c(/C=N/Nc3nc(C)cc(C)n3)c(=O)n2c1	-3.8	-0.2	/	i	/	-22	/
Cc1cc(C)c(S(=O)(=O)N2CCN(C(=O)c3c(C)nn(-c4ccccc4)c3Cl)CC2)c(C)c1	-0.9	/	0.71	i	/	3.4	2.0
CNC(=O)COC(=O)c1cc(F)c(F)cc1Cl	0.5	-0.5	0.74	/	5%	/	3.9
COc1ccccc1N1CCN(S(=O)(=O)c2c(C)[nH]c(C)c2C(=O)N2CCCC2)CC1	0.8	4.1	0.69	i	3%	0.7	2.4
COc1cc(OC)cc(C(=O)NNC(=S)NC(=O)c2cccnc2)c1	-0.9	4.8	0.67	i	/	-0.1	6.7
C=CCNC(=S)NNC(=O)c1ccc(=O)n(Cc2ccccc2)c1	-0.3	4.5	0.7	i	-4%	-3.1	2.2
CCC(Sc1nc2cc(OC)c(OC)cc2c(=O)n1Cc1ccco1)C(=O)NCCOC (centres undefined)	15	-4.6	0.75	/	>100µM*	/	1.4
Cc1ccc(NC(=S)c2ccc3ccccc3n2)c(C)c1	3.3	12	/	i	/	-1.6	/
Cc1ccc(NC(=O)CNc2cc(S(=O)(=O)N3CCOCC3)ccc2N2CCOCC2)cc1S(=O)(=O)N(C)C	-0.2	/	0.72	i	-16%	1.2	1.0
Cc1ccc(NC(=O)c2ccc3c(c2)C(=O)N(Cc2cccnc2)C3=O)c(C)c1	-5.4	0.0	0.75	i	2%	1.1	-7.6
OCOCCCn1c(C2CCCN2c2nc(-c3ccc(F)cc3)cs2)nc2cc(Cl)c(N3CCCCC3)cc21 (centres undefined)	0.0	1.9	0.73	i	/	-30	2.3
CN1CCN(C(=O)/C(C#N)=C/c2ccc(OC(F)F)cc2)CC1	0.7	/	0.68	i	/	2.5	1.0
O=C(COc1ccccc1)N1CCN(c2ccc([N+](=O)[O-])c(N3CCCCC3)c2)CC1	1.3	2.5	0.7	i	0%	11	5.8
CC(C)c1nnc(NC(=O)C2CCCO2)s1 (centres undefined)	4.6	-1.3	0.68	i	4%	1.7	0.1
CC(=O)N1CCN(C(=O)COc2ccc3oc4c(c3c2)CCCC4)CC1	-2.5	-2.1	0.63	i	-9%	-17	1.1
CC(=O)N1c2ccc(S(=O)(=O)NCC3CCC(C(=O)NCc4ccc(C)o4)CC3)cc2CC1C (centres undefined)	-1.3	-4.4	0.66	i	0%	-4.8	4.9
COc1ccc(NC(=O)Cn2c(-c3ccc(OC)cc3)cn(-c3ccc(C)cc3)c2=O)cc1	12	2.0	0.7	/	3%	/	0.6
COC(=O)c1ccc(Nc2cc(C)nc3ccc(C)cc23)cc1	0.4	-2.5	0.63	i	-2%	2.9	-14
CCN(CC)CCCNC(=O)c1sc2ncn(CC(=O)Nc3ccc(C)c(Cl)c3)c(=O)c2c1C	1.8	3.9	0.7	i	6%	7.9	10
Nc1nnc(SCc2ccc(F)cc2)n1-c1ccccc1	-0.9	5.3	0.72	/	12%	/	1.0
COC(=O)/C(C#N)=C/c1c(N2CCN(c3ccccc3)CC2)nc2c(C)cccn2c1=O	4.3	2.9	0.68	/	/	21	4.1
COc1ccccc1CN1CCNC(=O)C1CC(=O)NCCCN1CCOCC1 (centres undefined)	-0.6	/	/	i	-5%	-3.7	/
COC(=O)C1CCN(C(=O)COC(=O)C2CCN(S(=O)(=O)c3ccc4c(c3)OCCO4)CC2)CC1	4.7	-5.3	0.73	i	2%	-0.9	3.3
O=C(Nc1ccccc1Cl)OC1CCCCC1	-1.4	?	0.69	i	-7%	-8.5	2.6
O=C(CCn1nnc2ccccc21)N1CCC(O)(c2cccc(F)c2)CC1	-1.2	-1.1	0.69	/	32%	/	-0.5
O=C(COc1ccccc1-c1ccccc1)N/N=C/c1cccc2ccccc12	-0.5	-0.4	/	/	5%	/	/
CCN1CCN(c2ccc(S(=O)(=O)N3CCCCC3)cc2NC(=O)CCNC(C)=O)CC1	1.9	/	0.69	i	-2%	-0.5	0.2
CN(Cc1ccccc1)S(=O)(=O)c1ccc(Cl)c(C(=O)NCc2ccncc2)c1	7.3	2.7	0.69	i	2%	-3.1	2.3
CCN(CC)C(=O)c1ccc(COc2ccccc2Br)o1	-0.6	2.4	0.69	/	3%	/	-1.7
CCOC(=O)c1oc2nc(CC(C)C)c3c(c2c1N)CCCC3	-0.9	-0.4	0.67	i	-1%	-3.0	-302
Cc1ccc(NC(=O)c2ccc(OC(=O)CCN3C(=O)c4ccccc4C3=O)cc2)cc1	0.3	1.3	0.76	/	2%	/	3.4
CCN(CC(=O)Nc1c(F)cccc1F)C(=O)CCCc1cccs1	0.6	/	0.67	i	-5%	-1.1	3.6
O=C(COc1ccc(Cl)cc1Br)OCC(=O)c1ccc[nH]1	-0.9	/	0.72	i	/	0.0	-1.1
CCOc1ccc(CCNC(=O)COC(=O)COc2ccc(C(=O)CC)cc2)cc1OCC	-3.6	-3.4	0.7	i	-2%	5.9	0.1
COCC(C)NC(=O)CSc1nnc(-c2cccc(S(=O)(=O)N3CCCCC3)c2)o1 (centres undefined)	5.6	9.2	0.64	i	12%	-1.6	-0.3
Cc1cccc(NC(=O)c2ccc(COc3cccc4ccccc34)o2)n1	1.4	-2.6	0.72	i	-4%	4.7	-2.6
COc1ccc(C(=O)C2CCCN(Cc3ccc(NC(C)=O)cc3)C2)cc1OC (centres undefined)	6.2	-6.5	0.68	i	-3%	1.2	-0.1
O=C(c1cc(-c2ccc(Cl)cc2)on1)N1CCCCCC1	-0.7	0.8	0.67	i	2%	0.3	-1.7
Cn1c(=O)c2c(nc(NCCNC(=O)c3ccco3)n2Cc2ccc(F)cc2)n(C)c1=O	1.7	5.2	0.68	+	-8%	0.8	-0.2
COc1ccc(C2=NCN(c3ccc(C)cc3)C(=S)N2)cc1	-8.5	-0.2	0.69	/	?	/	-1.4
CN1CCN(CCc2nc3cc(NC(=O)COc4ccc([N+](=O)[O-])cc4)ccc3n2C)CC1	-1.2	2.1	0.67	i	/	-0.7	6.4
C#CCNC(=O)C[C@@H]1C[C@@]2(C(=O)OC)CCCCC=C2N(CCC2=CCCCC2)C1=O	3.7	/	/	i	/	-0.7	/
N#CCC(=O)Nc1ccc(C(=O)OCC(=O)NNC(=O)c2ccc(Cl)cc2)cc1	21	2.1	0.64	/	-4%	-0.1	5.9
COc1ccc(C(=O)NN/C=C/C(=O)c2ccc(Br)cc2)cc1	-1.4	/	/	i	/	-1.1	/
CCOC(=O)C1(C)CCN1C(=O)c1cccc(OC)c1 (centres undefined)	-4.1	/	/	i	/	1.5	/
COc1cc(NC(=O)COC(=O)CNC(=O)c2ccc(C)cc2)c(C)cc1[N+](=O)[O-]	2.6	-1.3	0.7	i	12%	-1.7	5.5
O=C(NCCC1=CCCCC1)C1CCN(S(=O)(=O)c2cccc3cccnc23)CC1	-0.5	0.3	0.71	i	1%	3.0	1.6
COc1ccc(NS(=O)(=O)c2ccc(N3CCOCC3)c(NC(=O)c3ccccc3Cl)c2)cc1	-2.7	-0.9	0.72	i	24%	3.3	1.1
Cc1cc(NC(=O)COC(=O)C2CC(=O)N(c3ccc(C)c(Cl)c3)C2)no1 (centres undefined)	0.0	-1.0	0.65	i	/	-9.7	4.1
COc1cc(-c2cc(C(=O)N3CCN(c4ccccn4)CC3)c3ccccc3n2)cc(OC)c1OC	2.8	3.0	0.7	/	-3%	/	-16
COc1ccc(/C=c2\sc3nc(-c4ccccc4)c(-c4ccccc4)n3c2=O)cc1OC	3.8	1.8	/	/	-3%&4%	/	/
CCC(=O)Nc1sc(C(=O)Nc2ccccc2OC)c(C)c1C(=O)OC	-0.1	-4.3	0.73	i	-13%	-5.0	-48
CC(=O)Nc1ccc(SCC(=O)N(CCC#N)c2cc(C)cc(C)c2)cc1	-3.6	-0.3	0.67	/	0%	/	1.9
COc1ccc(CN2CCNC(=O)C2CC(=O)NC2CCCC2)c(C)c1C (centres undefined)	2.9	-0.6	0.7	i	/	2.8	-4.6
Cc1nc(S(=O)(=O)c2ccc(Cl)cc2)c(NCc2ccccc2)o1	0.8	-0.2	/	/	12%	/	/
FC(F)(F)c1cnc(N2CCC(=NOCc3ccc(Cl)cc3)CC2)c(Cl)c1	-4.4	-1.8	0.68	/	12%	/	1.7
Cn1c(SCC(=O)N2CC(=O)Nc3ccccc32)nnc1C(F)(F)F	4.6	/	0.65	/	-5%	0.6	3.8
COc1cccc(/C=N/Nc2ncccc2[N+](=O)[O-])c1OC	2.1	-4.2	/	i	/	2.7	/
Other structures follow.
SMILES	HNF4A DNA FP	RanGTP-Imp inh	E coli growth	FGF22 binding	Vif TR-FRET	AF4-AF9 inh	UCH37 DUB inh
COc1ccc(CNC(=O)c2cc3cccc(O)c3oc2=N)cc1	5.1	-3.0	0.73	i	-4%	-0.2	5.9
O=C(NN=C1C2CC3CC(C2)CC1C3)c1ccccc1O	6.2	-1.9	0.65	i	-4%	0.2	-75
Cc1ccc(/C=C/C(=O)Nc2cccc(S(=O)(=O)N3CCOCC3)c2)o1	4.3	1.3	0.67	i	21µM*	-23	5.4
CCc1ccc(NC(=O)CCc2nc3ccccc3[nH]2)cc1	2.8	1.8	0.66	i	-12%	-0.2	2.0
C=CCn1c(O)c(C(CC)=NCc2cccnc2)c(=O)[nH]c1=O	3.6	2.3	0.7	/	7%	/	0.8
Cc1ccccc1OCCC(=O)Nc1ccc(F)c(Cl)c1	4.8	4.7	0.64	i	/	-3.3	3.9
CCOc1ccccc1NC(=O)Cn1nc(-c2ccco2)ccc1=O	0.7	1.4	0.71	i	/	2.7	-5.8
CCOc1cc(C(=O)OC(C(=O)NC(=O)NC)c2ccccc2)ccc1OCC(=O)N1CCOCC1 (centres undefined)	-1.7	/	/	i	1%	-8.7	/
Cc1cnccc1CN(C)Cc1cn(C)nc1-c1ccc(Oc2ccccc2)cc1	-4.8	-3.6	0.65	i	15%	2.6	1.8
O=C(CCOc1ccccc1)NNC(=O)c1ccccc1	-0.2	/	0.66	/	-2%	-1.2	3.2
COCCn1c(SCC(=O)NCC2CCCO2)nc2c(c1=O)SC(C)C2 (centres undefined)	-3.9	1.4	0.77	i	-6%	-9.1	9.0
CCCNC(=O)c1ccc(Cl)c(Cl)c1	0.8	?	0.65	/	-5%	/	1.2
O=S(=O)(NCCCO)c1ccc2c(c1)Cc1cc(S(=O)(=O)NCCCO)ccc1-2	-1.3	0.8	0.7	/	-3%	/	3.6
O=S(=O)(c1ccc(F)cc1)N1CCN(S(=O)(=O)c2cc(F)ccc2F)CC1	-0.9	0.1	0.68	i	-6%	-10	5.2
CC(=O)Nc1nnc(COc2ccc(Cl)cc2)s1	-0.5	2.3	0.7	i	3%	2.4	1.3

Some of the compounds tested. The share of hits here may be higher or lower than overall.
